NPYLR7 ag = agonists of mosquito NPYLR7 receptor, primary screen, cell-based, Aedes aegypti, calcium fluorescence, mosquito biting behavior; Aedes aegypti neuropeptide Y-like receptor 7 (NPYLR7); actives 0.15% (n = 270,000); HEK293T NPYLR7/Galpha15, GCaMP6s calcium fluorescence; activation, % at 10 µM; in the data active = activation above about 40%;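 note: 0% = vehicle and 100% = reference agonist at the receptor; some compounds past the cut are filed as inactive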
NPYLR7 ag max-min = recorded beside NPYLR7 ag, whose call it bears; activation, %; measured here: Max-Min RFU normalised activation; some inactives read as strong as hits;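 span of the calcium signal over five minutes; 0% = vehicle and 100% = native peptide agonist; compound fluorescence can raise it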
The depositor's hits bear a star; & = joins results of further samples.

SMILES	NPYLR7 ag	NPYLR7 ag max-min
CSc1nc(-c2ccc(C)cc2)nc(C(Cl)Cl)n1	-4	-6
CC(=O)Nc1ccc(-c2c(-c3ccccc3)ncn2Cc2ccccn2)cc1	5	-6
Cc1nccn1CCCC(=O)Nc1cc(F)ccc1-n1cccn1	2	0
CCc1ccc(CN2CCC(CO)(Cc3ccc(OC)cc3)CC2)o1	3	0
O=C1Nc2ccc(I)c3cccc1c23	2	19
CCCN(Cc1cccn1Cc1cccc(Cl)c1)C(=O)Nc1ccc(OC)cc1OC	1	9
COc1ccc2oc(C)c(C(=O)Nc3ccc(N(C)C(C)=O)cc3)c2c1	-4	3
C=C(C)C(O)(C(=C)C)c1ccc(CN(CCOC)Cc2ccc3c(c2)OCO3)o1	-2	-1
Cc1cc(Cl)cc(Cl)c1CNC(=O)c1cncn1-c1cccc(-c2ccccc2C(F)(F)F)c1	14	22
Cc1c(-c2csc(=NCc3ccc(Cl)cc3)n2NC(=O)C2CC2c2ccccc2)sc2ccc(Cl)cc12 (stereo not drawn)	-3	-8

In the list so far, these contain sulfur:
SMILES	NPYLR7 ag	NPYLR7 ag max-min
CSc1nc(-c2ccc(C)cc2)nc(C(Cl)Cl)n1	-4	-6
Cc1c(-c2csc(=NCc3ccc(Cl)cc3)n2NC(=O)C2CC2c2ccccc2)sc2ccc(Cl)cc12 (stereo not drawn)	-3	-8

Later entries.
SMILES	NPYLR7 ag	NPYLR7 ag max-min
COCCCNc1nc2nonc2nc1N1CCN(CC2CC2)CC1	13	2
O=C(NCC1=CCCCC1)c1ccccc1-c1ncc[nH]1	5	4
COc1cc(-c2ccnc(N3CCN(S(=O)(=O)c4ccccc4C#N)CC3)n2)cc(OC)c1OC	18	22
COc1cc(-c2ncc[nH]2)ccc1OCC(N)=O	6	5
Cc1ccc(C(O)(CC2=NC(C)(C)CN2C(C)C)c2ccccc2)cc1 (stereo not drawn)	1	3
Cc1ccc(Oc2cc(Cl)ncn2)cc1	-15	-14
Cc1nc(C(C)N(C)C(=O)NCc2cccc(F)c2)c(C)s1 (stereo not drawn)	20	13
O=C(Cn1ccn2nc(-c3ccccc3)cc2c1=O)Nc1ccccc1	25	15
CCCCc1cn(CC2CCN(C(=O)c3cn4ccccc4n3)CC2)nn1	8	7
CC(C)C(=O)Nc1ccc(SCC(=O)NCc2ccccc2)nn1	-1	-2
CCCN(C(=O)CSc1nnc(C)n1C1CC1)C1CCS(=O)(=O)C1 (stereo not drawn)	-3	-4
COc1ccc(-c2cc(C(=O)N(C)C3CCCN(CCc4ccccc4)C3)[nH]n2)cc1 (stereo not drawn)	4	-1
COC1CCCN(C(=O)C(C)Oc2ccc3c(c2)OCO3)C1 (stereo not drawn)	4	0
CNC(=O)COc1ncnc2c(Cl)cc(Cl)cc12	-23	-20
CSCC(=O)N1CCN(C(=O)Nc2ccc(F)cc2)CC1	-7	-7
COc1ccc(Oc2cccc(CN3CCNC(C(=O)NC4CC4)C3)c2)cc1 (stereo not drawn)	15	13
Cc1cc(C(=O)N2CCCC(CCc3ccccc3C)C2)ccc1O (stereo not drawn)	-1	-2
COc1ccc2oc(=O)c(C(=O)OC3CCCCC3)cc2c1	6	4
O=C1CCCN1C1CCN(c2ccc(Cn3ccnc3)cn2)CC1	0	-3
COCCN(CC(=O)N1CCc2sccc2C1c1ccc(C)cc1)C(=O)C(Cl)c1ccccc1 (stereo not drawn)	28	27
COC(=O)C1CCN(C(c2ccc(F)cc2)C2Sc3nc(-c4ccco4)nn3C2=O)CC1 (stereo not drawn)	3	1
CNC(=O)c1nnc2n1CCN(C(=O)c1ccc(F)c(C)c1)C2	1	1
CC1=CC(=O)C2C(C)(C)CCC[C@]2(C)[C@@]1(O)CCc1ccoc1 (stereo partly drawn)	-12	-18
CCCc1nc(NC(C)Cn2cncn2)c2cnn(C)c2n1 (stereo not drawn)	1	-3
COc1ccc2c(=O)c3c(oc2c1)C(=O)N(c1nccs1)C3c1ccccc1 (stereo not drawn)	6	2
Cc1ccc2c(C)c(C(=O)N(C)Cc3ccno3)oc2c1	9	3
Cc1nonc1OCCNC1CCC2(CCNCC2)CC1	12	8
O=C(NCC1(c2ccccc2)CC1)Nc1ccc2c(c1)C(=O)NC2=O	6	4
O=C(C1=C(O)C(=O)N(CCCn2ccnc2)C1c1ccc(Cl)cc1)c1cccs1 (stereo not drawn)	0	1
O=C(NCc1ccccc1-n1cncn1)c1n[nH]c2c1CCC2	1	-1
C=CC(C)(CO)N(CCN1CCOCC1)Cc1cccn1Cc1cccc(OC)c1 (stereo not drawn)	-1	11
CCC1CCCCC1N(C)c1ccc(C#N)cn1 (stereo not drawn)	-2	-8
O=C(c1ccc(CSc2nc(Cl)cc(N3CCN(c4ccccc4Cl)CC3)n2)cc1)N1CCN(Cc2ccc3c(c2)OCO3)CC1	28	28
O=C(NCCC(=O)N1CCN(C(=O)CC(F)(F)F)CC1)c1ccoc1	1	16
COc1ccccc1N1CCN(c2ncccc2CNS(C)(=O)=O)CC1	13	8
CC1CC1C(=O)Nc1ccc(O)c2ccccc12 (stereo not drawn)	1	1
CC1CC(=O)c2c(OCC(=O)NCc3ccco3)ccc(Cl)c21 (stereo not drawn)	2	1
Cc1cnc2c(C(=O)NCCc3nccc(-c4ccccc4)n3)cnn2c1	28	11
COC(=O)C(c1ccc(F)cc1Cl)C1C=CC(NC(=O)c2ccc([N+](=O)[O-])o2)C1 (stereo not drawn)	8	16
Cc1ccc(NC(=O)CCN2C(=O)CSC2c2ccccc2F)cc1 (stereo not drawn)	33	37
CC(C)NC(=O)C1(N2Cc3ccc(-c4cccnc4)nc3C2=O)CC1	-10	-4
CN(Cc1ccccn1)C(=O)c1cc(=O)n(C)c2ccccc12	3	1
NC(N)=N[C@@H](CCC(=O)O)C(=O)O	-2	-24
COCCn1cc(NC(=O)N(CCC(F)(F)F)C2CCCC2)cn1	9	7
Cn1cnn(CN2CCN(Cc3csc(-c4ccsc4)n3)CC2)c1=S	4	2
Cc1nc(SCc2cccc(C(=O)NCC3CCCO3)c2)nc(N2CCN(C/C=C/c3ccccc3)CC2)c1C (stereo not drawn)	4	12
Cc1cc(C)cc(CSCC(=O)N2CCCC3(CNC(=O)O3)C2)c1 (stereo not drawn)	7	6
CCCC(Sc1nnc(C)n1-c1cccc(Cl)c1)C(=O)OCC (stereo not drawn)	0	-2
C=CCn1c(SCCCCCCC)nc2c1c(=O)n(C)c(=O)n2C	2	8
Cc1ccsc1CN(Cc1ccccc1)C(=O)CN(CC(C)C)C(=O)C(Cl)Cl	-7	-1

(continued)
SMILES	NPYLR7 ag	NPYLR7 ag max-min
O=C(O)CCC(=O)Nc1sc2c(c1C(=O)Nc1ccc(Cl)cc1)CCCC2	4	1
Cc1ccc(S(=O)(=O)NCCc2nnc3ccc(SCC(=O)NCc4ccccc4)nn23)cc1	-8	-11
O=C1OCCN1c1ccccc1NS(=O)(=O)c1ccc2c(c1)CCO2	6	4
O=C(CCOc1ccccc1)N(Cc1cccnc1)c1nc2c(Cl)cccc2s1	-22	-8
CC(=O)c1ccc(-n2c(C)cn(CCC#N)c2=O)cc1	8	3
c1cc[n+](Cc2ccc(C[n+]3ccccc3)c3nsnc23)cc1	13	11
COc1ccc2c(NCc3ccc(C)cc3)c(C#N)cnc2c1	-2	-8
COc1ccc(C)cc1CCNC(=O)Cn1c(-c2ccc(C)cc2)csc1=O	1	1
CSc1ccc(CN(C)C(=O)COc2ccc3ccc(=O)oc3c2)cc1	-2	10
CCc1ccc(C(O)CSc2n[nH]c(C3CC3)n2)cc1 (stereo not drawn)	13	7

Entries above with fluorine, in the order listed:
SMILES	NPYLR7 ag	NPYLR7 ag max-min
Cc1nccn1CCCC(=O)Nc1cc(F)ccc1-n1cccn1	2	0
Cc1cc(Cl)cc(Cl)c1CNC(=O)c1cncn1-c1cccc(-c2ccccc2C(F)(F)F)c1	14	22
Cc1nc(C(C)N(C)C(=O)NCc2cccc(F)c2)c(C)s1 (stereo not drawn)	20	13
CSCC(=O)N1CCN(C(=O)Nc2ccc(F)cc2)CC1	-7	-7
COC(=O)C1CCN(C(c2ccc(F)cc2)C2Sc3nc(-c4ccco4)nn3C2=O)CC1 (stereo not drawn)	3	1
CNC(=O)c1nnc2n1CCN(C(=O)c1ccc(F)c(C)c1)C2	1	1
O=C(NCCC(=O)N1CCN(C(=O)CC(F)(F)F)CC1)c1ccoc1	1	16
COC(=O)C(c1ccc(F)cc1Cl)C1C=CC(NC(=O)c2ccc([N+](=O)[O-])o2)C1 (stereo not drawn)	8	16
Cc1ccc(NC(=O)CCN2C(=O)CSC2c2ccccc2F)cc1 (stereo not drawn)	33	37
COCCn1cc(NC(=O)N(CCC(F)(F)F)C2CCCC2)cn1	9	7

Going on with the list.
SMILES	NPYLR7 ag	NPYLR7 ag max-min
CCOc1ccc(N2C(=O)CSC2c2cccc(NC(=O)CCc3ccccc3)c2)cc1 (stereo not drawn)	11	12
Brc1cncc(NCCOCC2CCCO2)c1 (stereo not drawn)	5	2
CC12CCC(CC1=NN=C1NC(=O)C(=CC(O)c3ccc(F)cc3)S1)C2(C)C (stereo not drawn)	11	11
CCOC(=O)N1CCN(C(=O)CC2(c3ccccc3F)CC(=O)N(CCOC)C2=O)CC1 (stereo not drawn)	-2	-9
O=C(Cn1c(-c2ccoc2)nc(-c2ccccc2)c1-c1ccccc1)NCCc1cnc[nH]1	2	0
c1ccc2c(c1)CCN(C1CCCN(Cc3ccc4c(c3)OCCO4)C1)C2 (stereo not drawn)	6	5
C[C@H](c1ccc(F)cc1)n1c(CCn2cccn2)n[nH]c1=O	13	8
O=S(=O)(NC1CCN(S(=O)(=O)c2cc(Cl)ccc2Cl)CC1)c1ccccc1	5	5
C=Cc1ccc(S(=O)(=O)N2CC(=O)N3CCc4cc(OC)c(OC)cc4C3C2)cc1 (stereo not drawn)	-3	4
Cc1cccnc1C(NC(=O)C1CCN(Cc2ccccc2F)CC1)c1ccc(Cl)cc1 (stereo not drawn)	-5	-10
COc1ccc(-c2nccc(C(F)(F)F)n2)cn1	2	2
CCCCCCCCC(=O)Nc1c(-c2ccc(C)cc2)nc2ccccn12	-1	5
Cc1c(Cl)cccc1Nc1ccccc1C(=O)O	-21&-4	-25&-9
Cc1nc2c(c(N3CCCC3)n1)CN(C(=O)NC13CC4CC(CC(C4)C1)C3)CC2	-1	5
O=C(NC12CC3CC(CC(C3)C1)C2)c1ccc(-n2cccn2)cc1	-1	-3
CCN(CCN1C(=O)C(C)SC1c1cccc(C)c1)C(=O)c1cccs1 (stereo not drawn)	1	5
COc1ccccc1C(=O)NC(Cc1ccccc1)c1nnc(SCc2ccccc2)n1-c1ccc(C)cc1 (stereo not drawn)	12	21
COCCNC(=O)c1csc(CSc2nnc(-c3ccccc3Cl)n2-c2cccc(Cl)c2)n1	15	15
COc1cccc(-n2c(=O)[nH]c3c(C(N)=O)nc(-c4cccnc4)nc32)c1	10	0
O=C(NC1CCCC1)c1cc2c(=O)n3ccccc3nc2s1	8	3
O=C(NC12CC3CC(CC(O)(C3)C1)C2)c1cccc2ccnn12	6	4
CN1CCC(N(C)Cc2cncc(-c3ccc(Cl)c(Cl)c3)c2)CC1	5	4
CC1CC(NC(=O)c2c(O)nc3ccccn3c2=O)CC(C)(C)C1 (stereo not drawn)	-1	23
Cc1ncsc1CCC(=O)NCc1cccnc1N1CCOCC1	1	-4
O=C(COC(=O)c1cccc2c1C(=O)c1ccccc1C2=O)Nc1c(F)cccc1F	0	0
Cn1nnnc1SCSc1nnnn1C	7	3
COc1ccccc1N=C1SC(C(=O)Nc2cccc(Cl)c2)CC(=O)N1C (stereo not drawn)	-2	-4
CN(Cc1ccccc1)C(=O)C1(C)CCN1C(=O)Cc1ccc(Cl)cc1Cl (stereo not drawn)	12	11
O=C1C2C3c4ccccc4C(c4ccccc43)C2C(=O)N1c1nccs1 (stereo not drawn)	4	9
Brc1ccc(NCCc2nc(-c3ccco3)n[nH]2)nc1	-3	387

3 of these compounds, set out differently.
| Compound | NPYLR7 ag | NPYLR7 ag max-min |
| --- | --- | --- |
| CC1CC(NC(=O)c2c(O)nc3ccccn3c2=O)CC(C)(C)C1 (stereo not drawn) | -1 | 23 |
| O=C(NC12CC3CC(CC(O)(C3)C1)C2)c1cccc2ccnn12 | 6 | 4 |
| O=C1C2C3c4ccccc4C(c4ccccc43)C2C(=O)N1c1nccs1 (stereo not drawn) | 4 | 9 |

Next records follow.
SMILES	NPYLR7 ag	NPYLR7 ag max-min
O=C(OCc1cc(-c2ccc(F)cc2F)on1)C1CC1	-1	-3
CC(C)(C)Nc1c(-c2ccc(F)cc2)nc2ccc(Br)cn12	17	28
COc1ccc(CCN(C)C(=O)CCC(=O)c2ccc(F)cc2)cc1OC	-3	-14
Cc1cnc2c(C(=O)N(C)C(C)Cc3ncccc3C)cnn2c1 (stereo not drawn)	-2	-4
CC(=O)Nc1cccc2c1N(C(=O)C1CCN(S(=O)(=O)c3cc(F)ccc3F)CC1)CCC2	4	2
CCCCS(=O)(=O)N1CCC2(CC1)C(=O)N(C)C(=O)N2C	-8	-10
CC1=NN(C)c2nc3c(c(=O)n(Cc4c(F)cccc4Cl)c(=O)n3C)n2C1C (stereo not drawn)	4	4
CC(C)Nc1ccc(C(=O)Nc2ccccc2Nc2ccccc2)cn1	9	-2
CCCc1[nH]n(-c2cccc(Cl)c2)c(=O)c1/C=C1\NC(=O)N(Cc2ccc(C#N)cc2)C1=O	15	13
COc1ccc(-c2n[nH]c(=S)o2)cc1	-6&-1	-11&4
COCCNC(=O)C(NC(=O)c1cccc(C)c1)C1CCN(C(=O)c2ccco2)CC1 (stereo not drawn)	4	6
COC(=O)c1ccc(CSCc2ccc(C(=O)OC)o2)o1	-2	-4
O=C(COC(=O)C12CC3CC(CC(Br)(C3)C1)C2)N1CCN(C(=O)c2ccco2)CC1	6	3
CCCc1c(C(=O)NCCO)nnn1-c1ccccc1	-1	8
O=c1[nH]c(=O)n([C@H]2C[C@H](O)[C@@H](CO)O2)cc1I	1	0
Cc1ccc(S(=O)(=O)NCc2nc(C)c(C)s2)cc1N(C)C	-22	-26
CN(Cc1cccc(Cl)c1)C(=O)CSc1ccc(S(=O)(=O)N2CCCCCC2)cn1	2	5
OC1CCN(c2ccnc(N3CCN(C/C=C/c4ccccc4)CC3)n2)CC1	26	13

Assay outcomes: PubChem, Fisher Drug Discovery Resource Center

Some of the compounds tested; the hit share may differ from the screen's.
